# HSD17B inh: inhibitors of human HSD17B10 dehydrogenase; Q99714; recombinant HSD17B10, NADH fluorescence kinetic; many of its hits are not listed in these tables; Potency, µM (top dose mostly 57.1 µM), inactives show at the top dose activity change, negative = inhibition, most hits filed as inhibitors; actives 7.6% (n = 75,000); active means well fitted inhibition curve with a large enough effect; inconclusive means small, poorly fitted or top-dose-only effect; inactive means no such curve, though single readings can be large or run the other way;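 further: the protocol describes HADH2 (HSD17B10) and not the HSD17B4 of the title; nearly all actives have a fitted effect of over 70% in size; most hits overshoot -100% by far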
#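 20 nM HADH2, pH 9.0 Tris/Tween; cpd preinc 15 min RT; start w/ 1 mM NAD+ + 90 uM b-hydroxybutyryl-CoA; kinetic fluor ex360/em450 q30s x 4 min; delta last-first.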
# An asterisk follows results filed as active; ? = inconclusive; & = joins results of further samples; [ ] = dose if it differs, or a comment. On the % scale 0 is the no-effect control and ±100 the full control effect; potency means the concentration at half of the fitted maximal effect. Not all compounds are listed; rates above refer to the full screens.
SMILES,HSD17B inh
CC(C)N1C(=O)CCC1C(=O)NCc1ccccc1Cl (stereo unspecified),2%
Cc1cnc(CNc2ccnc(-c3ccc(N(C)C)cc3)n2)cn1,-17%
O=C(CSc1nnc(-c2ccc(NS(=O)(=O)c3ccccc3)cc2)o1)NCC1CCCO1 (stereo unspecified),-16%
O=C(COC(=O)c1cc(S(=O)(=O)N2CCOCC2)cs1)c1ccccc1,19%
COC(=O)c1cn(C)c2ccc(S(=O)(=O)N3CCCCC3)cc2c1=O,4%
Cc1ccccc1OCC1CN(CN2CCOCC2)C(=O)O1 (stereo unspecified),3%
CCCn1c(C)cc(C(=O)COC(=O)c2ccc(Cl)c(S(=O)(=O)N3CCCC3)c2)c1C,-5%
Cc1nn(Cc2ccccc2)c(C)c1NC(=O)CCC(=O)O,1%
C(=C\c1ccccc1)/CSc1nnc(-c2cccnc2)o1,-3%
O=C1CC(Sc2nnc(-c3ccccc3)o2)C(=O)N1c1ccccc1 (stereo unspecified),?
CCc1nnc(NC(=O)CN2C(=O)c3ccccc3S2(=O)=O)s1,3%
CCOC(=O)C1CCN(Cc2cn[nH]c2-c2ccccc2)CC1,0%
O=C(O)CSc1nnc(-c2ccncc2)n1C1CCCCC1,-1%
CCOCCCN1CC(C(=O)NCCc2ccccc2)CC1=O (stereo unspecified),9%
CCOC(=O)C1CCCN(C(=O)C2CCN(S(=O)(=O)c3cnc[nH]3)CC2)C1 (stereo unspecified),16%
Cc1cc(C)c(C(=O)Nc2ccc(S(=O)(=O)Nc3onc(C)c3C)cc2)c(C)c1,7%
COC(=O)Cn1c(C)nc(=O)c(-c2ccccc2)c1C,2%
COc1ccc2nc(C)c3c(c2c1)OC(C)C3 (stereo unspecified),32µM*
c1cc(NNc2cccc(-c3nn[nH]n3)c2)cc(-c2nn[nH]n2)c1,-4%[11.4 µM]
CCOc1ccc(C2C(C(=O)OC)=C(C)N=C3SCCC(=O)N32)cc1OCC (stereo unspecified),8%
CCCOC(=O)Nc1ccc(S(=O)(=O)Nn2cnnc2)cc1,4%
O=C(O)c1cccc(COCC(F)(F)C(F)F)c1,7%
N#CCCn1c(SCC(=O)N2CCN(S(=O)(=O)c3ccccc3)CC2)nc2ccccc21,6%
COC(=O)c1ccsc1NC(=O)CSc1nnnn1-c1ccccc1SC,?
COc1ccc2oc(=O)c(C(=O)N3CCN(c4ccccc4)CC3)cc2c1,0%
O=C1c2ccccc2S(=O)(=O)N1CC1CC(c2ccccc2)=NO1 (stereo unspecified),6%
Cc1ccccc1-c1nc(NCc2cccnc2)c2ccccc2n1,-17%
C=CCn1c(=O)/c(=C/c2cc(OC)c(OC)c(OC)c2)s/c1=C(/C#N)c1nc2ccccc2n1C,-4%
COc1ccc(-n2c(SCC#N)nnc2-c2ccc(NS(=O)(=O)c3ccc(C)cc3)cc2)cc1,-10%
O=C(CSc1nnnn1C1CCCC1)N1CCN(C(=O)c2ccco2)CC1,9%
O=C(NCc1ccc2c(c1)OCO2)C1CCN(Cc2cnn(-c3ccccc3)c2-n2cccc2)CC1,-4%
Cc1[nH]n2c(=O)c3c(nc2c1-c1ccccc1)CCCC3,?
COc1ccc(-c2nnc(-c3ccc(Br)o3)o2)cc1OC,?
Cc1cccc(OCc2nnc(SCC(=O)N3CCCC3)n2C)c1,6%
CCOC(=O)C1CCN(C=Nc2cc(C)on2)CC1,0%
O=C(CSc1nnc(-c2cccs2)n1-c1ccccc1)Nc1ccccc1,?
COCCOC(=O)C1=C(C)NC(=O)NC1c1cn(-c2ccccc2)nc1-c1cccs1 (stereo unspecified),-4%
Cc1cccc(N2CCN(C(=O)Cn3cccc3)CC2)c1C,?
O=S(=O)(NCc1ccccc1)c1cnc[nH]1,-4%
N#Cc1c[nH]n2c(=O)cc(Cc3ccccc3)nc12,-20%
O=S(=O)(NCC(c1cccnc1)N1CCN(c2ccccc2)CC1)c1cccs1 (stereo unspecified),4%
NCCCCCCCCCCNS(=O)(=O)c1cccc2c(Cl)cccc12,-1%
Cc1[nH]n2c(=O)c3c(nc2c1-c1ccc(Cl)cc1)CCC3,?
Cc1ccc(-c2nc3ncccn3c2NC(=O)C2CC2)cc1,32µM*
CCC(C)C(NC(=O)c1ccccc1NC(=O)c1ccco1)C(=O)O (stereo unspecified),5%
O=C1C=CC(=Nc2cccc3c(N=C4C=CC(=O)O4)cccc23)O1,?
CCOc1cc(CNn2cnnc2)ccc1OCC(=O)NC1CCCCC1,11%
CCN(CC)CCN1C(=O)C(=O)/C(=C(/O)c2cnn(-c3ccccc3)c2C)C1c1cccnc1 (stereo unspecified),4%
CCN1CCN(c2ncc(C(=O)N3CCCc4ccccc43)c3ccccc23)CC1,-6%
N[C@H](C(=O)O)[C@@H]1C[C@@H]1C(=O)O,3%&4%
O=C(NCCN1CCOCC1)c1cc(-c2ccc(Cl)cc2)on1,-5%
COc1ccc(N2CCN(C(c3cccs3)C(C)NC(=O)c3ccco3)CC2)cc1 (stereo unspecified),-3%
O=C(C1CCC1)N1CCc2cc(S(=O)(=O)N3CCc4ccccc4C3)ccc21,6%
NC(=O)CNCCC(c1ccccc1)c1ccccc1,1%&4%
CCOc1ccc(CCNC(=O)c2cc3sccc3n2C)cc1OCC,2%
O=C(c1cccc(F)c1)N1CCC2(CCCN(c3ccncc3)C2)CC1,6%
COc1ccc(-c2nc3c(c(=O)n(C)c(=O)n3C)n2CC2CC(c3ccccc3)=NO2)cc1OC (stereo unspecified),?
O=C(CCC(=O)N(c1ccccc1)C(C(=O)NC1CCCC1)c1ccncc1)Nc1cccnc1 (stereo unspecified),21%
CCCc1ncc(C(O)c2cccc(OC)c2OC)n1C (stereo unspecified),-3%
c1ccc(OCCOc2ccccc2-c2nnco2)cc1,3%
# (more compounds)
SMILES,HSD17B inh
COc1ccc(C(=O)N2CCN(Cc3ccccc3C)CC2)cc1OC,4%
Cn1nnc2cc(C(=O)N3CCSCC3)ccc21,-2%
O=C(O)CN(Cc1ccco1)S(=O)(=O)c1ccc(F)cc1,3%
COC(=O)C(C)c1ccc(C(=O)c2cccs2)cc1 (stereo unspecified),-3%
c1ccc(-c2nc(NC3CC3)nc(-n3ccnc3)n2)cc1,-3%
CC(C)C(NC(=O)CN1C(=O)c2ccccc2S1(=O)=O)C(C)C,7%
Cc1csc(NC(=O)CSc2nncn2C)n1,-12%
Cc1ccc2c(CN3CCN(CCO)CC3)cc(=O)oc2c1,-3%
CCN(CC)CCCCNC(=O)c1ccc(Cc2nc3ccccc3[nH]2)cc1,4%
CO[C@@H]1COC(=O)CC=C[C@@H](C)[C@@H]2C=C[C@H](O)[C@@H](COC(=O)[C@H](C)NC(=O)CC=C[C@H]1C)O2,0%[11.4 µM]
CCOC(=O)OCC1OC(c2ccccc2)C=CC1Oc1cccc(N(C)C)c1 (stereo unspecified),-1%[11.4 µM]
CCOC(=O)C1CCCN(C(=O)Cn2ncc3c(=O)oc4ccc(C)cc4c32)C1 (stereo unspecified),5%
CSc1nsc(SC)c1NC(=O)N1CCCC1,-6%
COc1ccc(C2C(C(=O)N3CC(C)CC(C)C3)c3ccccc3C(=O)N2C)cc1 (stereo unspecified),-12%
CCC1CCCCN1CCCNC(=O)C1CCN(S(=O)(=O)N2CCCCC2)CC1 (stereo unspecified),3%
NC(=O)c1cnn2c(C(F)(F)F)cc(-c3ccccc3)nc12,?
CCSc1nnc(NC(=O)CSc2nccn2-c2cccc(C)c2)s1,-2%
CC1=C(/C=C/C(C)=C/C=C/C(C)=C/CO)C(C)(C)CCC1,-9%
OC[C@@H]1CCC[C@H](n2cnc3c(=S)nc[nH]c32)O1,9%[11.4 µM]
NCc1ccc(-c2nc3ccccc3o2)cc1,25µM*
Cc1cc(C)cc(NC(=O)CSc2nnc(-c3ccc(S(=O)(=O)N4CCCC4)cc3)o2)c1,6%
CCOC(=O)N1CCC(N2Cc3cccc(C(=O)O)c3C2=O)CC1,-5%
Cc1cc(Cl)c(S(=O)(=O)N2CCCCCC2)cc1OCC(N)=O,5%
C/C=C1/C(=O)C[C@H]2[C@@H]3CCC4=CC(=O)CC[C@]4(C)[C@H]3CC[C@]12C,-8%
CCCCCC(=O)N(O)C1CC(=O)N(c2ccccc2)C1=O (stereo unspecified),-29%
C=C(C)n1c(=O)[nH]c2ccccc21,-9%
CSc1nc2ccc(NC(=O)C3CCCO3)cc2s1 (stereo unspecified),8%
COc1cc(NC(=O)CCN2CCN(c3ccccc3F)CC2)cc(OC)c1,-6%
Cc1ccc(CNn2cnnc2SCC(=O)NC(C)(C)C)cc1,0%
Cn1c(=O)n(C)c2cc(C(N)=O)ccc21,?
CC(C)N1C(=O)CCC1C(=O)NCCc1ccccc1 (stereo unspecified),7%
COc1ccc(C(=O)N2CCC[C@@]3(CCN(C(=O)Nc4ccccc4)C3)C2)cc1,-5%
CNCCC=C1c2ccccc2C=Cc2ccccc21,-3%[25.6 µM]
COc1ccccc1CN(Cc1nc2ccccc2c(=O)[nH]1)C(=O)Nc1ccccc1,?
Cc1ccccc1OC(C)C(=O)NC1CCCC1 (stereo unspecified),4%
CC1Cc2ccccc2N1C(=O)CCS(=O)(=O)c1cccc2nonc12 (stereo unspecified),-10%
CCOc1ccc(NC2CCN(C(C)=O)CC2)cc1,3%
CN(Cc1ccccc1)C(=O)Nc1ccccc1,6%
O=C(O)CCc1ccc(-c2ccc(Br)cc2)o1,?
CCCCC(CC)Cn1c2nc3ccccc3nc2c2c(=N)oc(C)nc21 (stereo unspecified),?
COc1ccccc1C(=O)N1CCN(S(=O)(=O)Cc2ccccc2)CC1,6%
COC(=O)Cc1n[nH]c(=S)[nH]c1=O,-9%
O=S(=O)(O)n1ccnc1 (tested in a mixture with another compound),4%[11.4 µM]
COc1ccc(N2CCN(S(=O)(=O)c3ccc(Br)s3)CC2)cc1,5%
CN1C(=O)CSc2ccc(NC(=O)NCCC3=CCCCC3)cc21,-10%
CCc1nnc(NC(=O)CSc2ncc(-c3ccccc3)n2CC)s1,1%
COc1ccccc1CNCCCCCCNCCCCCCCCNCCCCCCNCc1ccccc1OC,-6%
COCCn1c(SCC(=O)N2CCCC2)nnc1-c1ccoc1C,-5%

# Part of the list above in order of heavy-atom count, falling.
SMILES,HSD17B inh
O=C(NCc1ccc2c(c1)OCO2)C1CCN(Cc2cnn(-c3ccccc3)c2-n2cccc2)CC1,-4%
O=C(CCC(=O)N(c1ccccc1)C(C(=O)NC1CCCC1)c1ccncc1)Nc1cccnc1 (stereo unspecified),21%
CCN(CC)CCN1C(=O)C(=O)/C(=C(/O)c2cnn(-c3ccccc3)c2C)C1c1cccnc1 (stereo unspecified),4%
CO[C@@H]1COC(=O)CC=C[C@@H](C)[C@@H]2C=C[C@H](O)[C@@H](COC(=O)[C@H](C)NC(=O)CC=C[C@H]1C)O2,0%[11.4 µM]
Cc1cc(C)cc(NC(=O)CSc2nnc(-c3ccc(S(=O)(=O)N4CCCC4)cc3)o2)c1,6%
COCCOC(=O)C1=C(C)NC(=O)NC1c1cn(-c2ccccc2)nc1-c1cccs1 (stereo unspecified),-4%
COc1ccc(C(=O)N2CCC[C@@]3(CCN(C(=O)Nc4ccccc4)C3)C2)cc1,-5%
COc1cc(NC(=O)CCN2CCN(c3ccccc3F)CC2)cc(OC)c1,-6%
CCOC(=O)C1CCCN(C(=O)C2CCN(S(=O)(=O)c3cnc[nH]3)CC2)C1 (stereo unspecified),16%
COc1ccc(C(=O)N2CCN(Cc3ccccc3C)CC2)cc1OC,4%
Cc1ccccc1-c1nc(NCc2cccnc2)c2ccccc2n1,-17%
Cc1cnc(CNc2ccnc(-c3ccc(N(C)C)cc3)n2)cn1,-17%
CCc1nnc(NC(=O)CN2C(=O)c3ccccc3S2(=O)=O)s1,3%
CCCOC(=O)Nc1ccc(S(=O)(=O)Nn2cnnc2)cc1,4%
CCCc1ncc(C(O)c2cccc(OC)c2OC)n1C (stereo unspecified),-3%
CNCCC=C1c2ccccc2C=Cc2ccccc21,-3%[25.6 µM]
N#Cc1c[nH]n2c(=O)cc(Cc3ccccc3)nc12,-20%
CN(Cc1ccccc1)C(=O)Nc1ccccc1,6%
COc1ccc2nc(C)c3c(c2c1)OC(C)C3 (stereo unspecified),32µM*
C=C(C)n1c(=O)[nH]c2ccccc21,-9%

# Carrying on:
SMILES,HSD17B inh
Clc1ccc(C2=Nn3c(nnc3-c3n[nH]c4c3CCC4)SC2)cc1,-12%
O=C(Nc1ccc(O)cc1C(=O)O)c1cccc(Br)c1,-7%
O=C(Cn1c2c(c(-c3ccccc3)cc1=O)CCCC2)N1CCCCCC1,-8%
Cn1c(C(O)c2ccc3c(c2)OCO3)nc2ccccc21 (stereo unspecified),12%
CCOC(=O)N1CCN(S(=O)(=O)c2cccc3nsnc23)CC1,1%
Clc1ccc(-c2nnc(N3CCCC3)nn2)cc1,-2%
COC(=O)c1c(C(=O)OC)c2oc3ccccc3n2c1Cl,4%
C/C(CCN1CCc2nc(-c3ccccc3)c(-c3ccccc3)cc2C1)=N\OC[C@@H](O)COCc1ccco1,1%[11.4 µM]
CCN(Cc1ccccc1)C(=O)CC1Oc2ccccc2NC1=O (stereo unspecified),-13%
Cc1ccc(S(=O)(=O)N2CCCC2C(=O)N(C)Cc2cccs2)cc1 (stereo unspecified),-5%
O=C1c2cccc3cccc(c23)C(=O)N1c1cccnc1,25µM*
COc1cccc(NC(=O)CSc2nnc(-c3cc(C)n(-c4ccccc4)c3C)o2)c1,3%
O=S(=O)(CCc1ccccc1)/N=C/c1cccs1,5%
CCn1cc(C(C)(C)C)c(C#N)c1NC(C)=O,11%
O=C(Oc1ccccc1)N1CCC2(CC1)CCN(c1ccccn1)CC2,32µM*
CCOc1cc(CNc2ncnc3nc[nH]c23)ccc1OC,-18%
C=CCn1c(N)c(C(=O)Nc2ccccc2OC)sc1=S,-6%
